EPAC1 agonist = human EPAC1 agonism, validation; 16,000 compounds, 1% hits; Potency, µM, for the others: max response, positive = active, hits mostly activators; EPAC1 Rap1b BODIPY-GDP exchange, fluorescence; O95398; active = well fitted activation curve with a large enough effect; inconclusive = small, poorly fitted or top-dose-only effect; inactive = no such curve, though single readings can be large or run the other way;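 note: nearly all actives have a fitted effect of over 70% in size; series mostly up to about 76 or 150 µM; scaled to a cAMP control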
Target sequence (O95398 whole entry, looked up): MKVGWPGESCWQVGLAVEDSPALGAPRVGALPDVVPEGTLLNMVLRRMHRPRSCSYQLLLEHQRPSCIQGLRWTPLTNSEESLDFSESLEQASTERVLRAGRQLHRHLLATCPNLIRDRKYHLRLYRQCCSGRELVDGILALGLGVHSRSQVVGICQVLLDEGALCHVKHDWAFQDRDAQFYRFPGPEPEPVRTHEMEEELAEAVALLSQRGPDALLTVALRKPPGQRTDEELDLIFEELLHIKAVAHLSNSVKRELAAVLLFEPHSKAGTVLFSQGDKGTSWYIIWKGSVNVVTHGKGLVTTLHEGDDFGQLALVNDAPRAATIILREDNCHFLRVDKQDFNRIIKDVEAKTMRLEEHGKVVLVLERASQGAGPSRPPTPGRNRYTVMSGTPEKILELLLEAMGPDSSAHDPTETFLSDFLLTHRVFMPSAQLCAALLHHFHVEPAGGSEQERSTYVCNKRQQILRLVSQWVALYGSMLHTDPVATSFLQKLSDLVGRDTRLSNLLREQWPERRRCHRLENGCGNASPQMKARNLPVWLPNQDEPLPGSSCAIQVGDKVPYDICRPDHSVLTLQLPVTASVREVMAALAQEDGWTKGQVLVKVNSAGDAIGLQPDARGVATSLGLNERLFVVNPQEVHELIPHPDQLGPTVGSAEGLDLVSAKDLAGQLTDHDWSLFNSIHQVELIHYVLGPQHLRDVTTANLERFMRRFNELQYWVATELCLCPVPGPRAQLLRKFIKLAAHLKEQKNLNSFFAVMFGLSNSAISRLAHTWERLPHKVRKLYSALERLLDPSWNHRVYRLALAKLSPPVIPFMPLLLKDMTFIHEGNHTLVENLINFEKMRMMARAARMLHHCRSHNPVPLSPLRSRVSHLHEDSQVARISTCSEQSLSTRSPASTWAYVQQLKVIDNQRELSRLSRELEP
* marks the source's active call; other numbers are inactive results; ? = inconclusive; & = joins results of further samples; [ ] = dose if it differs, or a comment. % is set by controls: 0 for no effect and ±100 for the full control effect; potency is the fitted concentration of half-maximal effect. The list is partial; the hit share may differ from the screen's.

SMILES | EPAC1 agonist
CC1=C(CC(=O)O)c2cc(F)ccc2/C1=C\c1ccc(S(C)(=O)=O)cc1 | 9.4%
NC(=O)c1ccccc1O | -12.1%
Cc1noc(C)c1-c1nc(NC2CCNCC2)c2ccccc2n1 | -22.3%
COC1(C2=NCCN2)COc2ccccc2O1 (stereo unspecified) | 2.3%
O=C(c1cccc(F)c1)N1CCC2(CCN(Cc3ccccc3)CC2)CC1 | -43.8%[inhibitor]
COc1cc(-c2c(OC)cccc2OC)cc2c1OCCN(Cc1cn[nH]c1-c1ccc(Cl)cc1)C2 | 16.9%
COC(=O)CC1[C@@]2(C)C[C@@]34OC5(C)OC6(CC[C@@]7(C)C(c8ccoc8)OC(=O)C(C(C)=O)C7[C@]6(O5)C(O)[C@@]3(O)C2O)[C@]14C (stereo partly specified) | -14.5%
COc1ccc(C(=O)N2CCC[C@@]3(CCN(c4ccncc4)C3)C2)cc1 | -15.9%
CN(CCc1ccc(Cl)c(Cl)c1)CC(O)COc1ccc(NS(C)(=O)=O)cc1 (stereo unspecified) | -2.6%
COCCn1c(=O)c(-c2ccc(Cl)cc2)nc2cnc(N3CCOCC3)nc21 | -39.6%[inhibitor]
CC(=O)OC[C@@]12C(=O)[C@@H](O)[C@@H](C)[C@]3(C[C@@H](c4ccoc4)O[C@@H]3OC(C)=O)[C@H]1CCC[C@]21CO1 | -8.7%
COc1cc(/C(=C/c2ccccc2)c2ccccc2)c2c(c1)oc1ccccc12 | ?
COCCn1c(=O)c(-c2ccccc2)nc2cnc(Oc3ccc(OC)cc3)nc21 | -34.1%[inhibitor]
COc1ccccc1C1CN(CCNC(=O)c2ccccc2Cl)Cc2ccccc2O1 (stereo unspecified) | -2.9%
COc1ccc2c(c1)CCC1C2CC[C@@]2(C)C1CC[C@@H]2NCCCCCCN1C(=O)C=CC1=O (stereo partly specified) | 6.6%

Overlap with the part before: seven compounds, followed by the next part.
SMILES | EPAC1 agonist
CN(CCc1ccc(Cl)c(Cl)c1)CC(O)COc1ccc(NS(C)(=O)=O)cc1 (stereo unspecified) | -2.6%
COCCn1c(=O)c(-c2ccc(Cl)cc2)nc2cnc(N3CCOCC3)nc21 | -39.6%[inhibitor]
CC(=O)OC[C@@]12C(=O)[C@@H](O)[C@@H](C)[C@]3(C[C@@H](c4ccoc4)O[C@@H]3OC(C)=O)[C@H]1CCC[C@]21CO1 | -8.7%
COc1cc(/C(=C/c2ccccc2)c2ccccc2)c2c(c1)oc1ccccc12 | ?
COCCn1c(=O)c(-c2ccccc2)nc2cnc(Oc3ccc(OC)cc3)nc21 | -34.1%[inhibitor]
COc1ccccc1C1CN(CCNC(=O)c2ccccc2Cl)Cc2ccccc2O1 (stereo unspecified) | -2.9%
COc1ccc2c(c1)CCC1C2CC[C@@]2(C)C1CC[C@@H]2NCCCCCCN1C(=O)C=CC1=O (stereo partly specified) | 6.6%
Cn1c(=O)c(-c2cccs2)nc2cnc(N3CCNCC3)nc21 | 4.8%
O=C(Nc1ccc(Cl)c(C(F)(F)F)c1)[C@@H]1CC=C[C@@H]2CCN(Cc3ccc(Cl)c(Cl)c3)C(=O)[C@@H]21 | 27.6%
CCS(=O)(=O)CCn1c([N+](=O)[O-])cnc1C | -7.1%&-22.4%
COc1cccc(Nc2ncc3nc(C)c(=O)n(CCC#N)c3n2)c1 | -30.5%[inhibitor]
NS(=O)(=O)c1cc2c(cc1Cl)N[C@@H]([C@@H]1C[C@@H]3C=C[C@H]1C3)NS2(=O)=O | -5.9%
CN(C)c1ncc2nc(-c3ccccc3)c(=O)n(CCc3ccccc3)c2n1 | 28.0%
CC(C)(C)[C@@H]1CCC(=O)N(CC[C@H](Sc2ccccc2)c2ccccc2)CC1 | 10.0%
O=C1CCC(N2C(=O)c3ccccc3C2=O)C(=O)N1 (stereo unspecified) | 1.9%&10.5%&-4.1%&28.5%
CN1CCN2c3ncccc3Cc3ccccc3C2C1 (stereo unspecified) | -10.6%&4.1%
COc1cccc(Cn2c(=O)c(-c3ccc(Cl)cc3)nc3cnc(OC)nc32)c1 | 16.3%
C[C@H]1C(O)[C@@]23CCC4C5(C=[N+](CCO)C[C@]4(C)CCC5)C2C[C@@H]1C3 (stereo partly specified) | -38.2%[inhibitor]
N#Cc1ccccc1-c1ccc2ncnc(NCc3cccnc3)c2c1 | -8.4%
CC(=O)N[C@@H](C)C(=O)NCC1Cc2cccc(-c3ccccc3C(F)(F)F)c2O1 (stereo partly specified) | -0.4%
CCCCc1c(C)nc2c(OC)cccc2c1SCC(=O)O | -17.1%
c1ccc2c(NCCN3CCOCC3)nc(-c3ccc4c(c3)OCO4)nc2c1 | 26.4%
COc1ccc(N2C(=O)[C@@H]3C[C@H]2CN3Cc2cccn2-c2nccs2)cc1Cl | 19.4%
CNc1nc(-c2c(C)noc2C)nc2ccccc12 | -30.9%[inhibitor]
N#Cc1ccc(CN2CCCC3(CCN(S(=O)(=O)c4ccccc4)CC3)C2)cc1 | -10.7%
C[C@@H](/C=C\c1cccc(Oc2ccc(F)cc2)c1)N(O)C(N)=O | -24.8%
O=C(NCC1Cc2cccc(-c3ncccn3)c2O1)c1cccc(-c2ccccc2F)c1 (stereo unspecified) | -4.5%
COc1cc(CN2CCCC(n3cc(C(=O)N4CCCC4)nn3)C2)cc(OC)c1 (stereo unspecified) | -13.7%
O=C1NC(=O)C(Cc2ccccc2F)(C2CCN(Cc3cccn3-c3cccnc3)CC2)N1 (stereo unspecified) | -3.6%
CCOC(=O)/C=C/c1ccc2oc3ccccc3c(=O)c2c1 | -0.8%
O=C(O)c1cc2cc(Cl)ccc2[nH]1 | 21.3%
CC(=O)OC/C=C(C)/C=C/C=C(C)/C=C/C1=C(C)CCCC1(C)C | -5.7%&-56.5%&-19.7%
COCC(=O)N1CCC2(CCCN(c3ccccn3)C2)CC1 | ?
COc1ccc(C(OCCN2CCC[C@@H](C(=O)O)C2)(c2ccc(OC)cc2)c2ccc(OC)cc2)cc1 | 1.5%
Cn1c(=O)c2[nH]cnc2n(C)c1=O | 2.0%&-14.5%&-4.3%&-2.9%&7.9%
CC(=O)NCCNc1ncnc2ccc(-c3ccccc3C(F)(F)F)cc12 | -77.1%[inhibitor]
NC(=O)OC[C@@H]1[C@H](NC(=O)/C(=N\OCC(=O)O)c2csc(N)n2)C(=O)N1S(=O)(=O)O | 3.3%
O=C(C[n+]1cccc2cccc(O)c21)c1ccc(F)cc1 | 1.1%
CC(=NCc1ccccc1)c1ccccc1O | -0.1%
CN1C[C@H]2c3ccccc3Oc3ccc(Cl)cc3[C@@H]2C1 | ?
COc1ccccc1CCn1c(=O)c(-c2ccc(F)c(F)c2)nc2cncnc21 | ?
c1ccc(-c2nc[nH]c2-c2ccccc2)cc1 | -20.8%
FC(F)(F)c1ccccc1-c1ccc2ncnc(NCc3cccs3)c2c1 | ?
COc1ccc(C(=O)N2CCC3(CC2)CN(c2ncccn2)C3)cc1 | ?
COC(=O)[C@@H]1[C@@H]2C[C@H]3c4[nH]c5ccccc5c4CCN3C[C@@H]2CC[C@@H]1O | 14.3%&-3.3%
COc1ncc2nc(-c3cccs3)c(=O)n(C)c2n1 | -0.3%
CCC(C)(C)c1ccc(CC(C)CN2C[C@@H](C)O[C@@H](C)C2)cc1 (stereo partly specified) | -32.2%[inhibitor]
COc1ccc(CN2CCC3(CCC(CNC(=O)C4CCCO4)O3)CC2)c(C)c1C (stereo unspecified) | -8.9%
O=c1[nH]/c(=C/c2ccc3c(c2)OCO3)c(=O)[nH]/c1=C/c1ccc2c(c1)OCO2 | -73.1%[inhibitor]
CC(=O)NCCc1c(Cc2ccccc2)[nH]c2ccccc12 | -1.8%&1.3%
Cc1cccc(-c2cc(=O)c3cc(C)ccc3o2)c1 | 6.1%
COc1cccc(Cn2c(=O)c(CCc3ccccc3)nc3cncnc32)c1 | ?
COc1ncc2nc(CCc3ccccc3)c(=O)n(Cc3cccs3)c2n1 | ?
O=C(C[n+]1cccc2ccccc21)c1ccc(F)cc1 | ?
O=C1CCNCCN1[C@H](CO)c1ccccc1 | 7.0%
CN1CCN(c2ncc3ncc(=O)n(C[C@H]4CCCO4)c3n2)CC1 | 21.5%
COc1ccc(CNc2ccnc(-c3cccc(C#N)c3)n2)c(OC)c1 | 112µM*
CC(=O)NC(CC(=O)O)C(=O)NC(CCC(=O)O)C(=O)O (stereo unspecified) | -13.0%
CC(=O)Nc1ccc(OC[C@@H](O)CNC(C)C)cc1 | -13.1%
COc1ccc2[nH]cc(CCNc3cc(-c4ccccc4C)ncn3)c2c1 | -19.3%
COc1ccc(CN2CCOc3ccc(C(O)c4cccnc4)cc3C2)cc1O (stereo unspecified) | -12.9%
Cc1cc(=O)c2c(O)c3c(O)cc(=O)c4c3c3c(cc(O)c1c23)C(C)(C)C=4O | -22.2%&-21.7%
O=C1CN(/N=C/c2ccc(-c3ccc([N+](=O)[O-])cc3)o2)C(=O)N1 | -0.1%
COc1ccc(CCCO[C@@H](Cn2ccnc2)c2ccc(OC)cc2)cc1 | -14.7%
CCCC[C@H]1COCCS(=O)(=O)N1Cc1ccccc1F | -29.7%
NC[C@@H]1O[C@H](C23CC4CC(CC(C4)C2)C3)Cc2c1ccc(O)c2O | 4.2%&1.1%&-18.8%
COc1cc2oc(-c3ccccc3)cc(=O)c2cc1OC | -3.3%

3 entries from above, sorted by the number in EPAC1 agonist, largest number first:
Structure	EPAC1 agonist
O=C1CCNCCN1[C@H](CO)c1ccccc1	7.0%
COc1ccc(CCCO[C@@H](Cn2ccnc2)c2ccc(OC)cc2)cc1	-14.7%
COc1ccc2[nH]cc(CCNc3cc(-c4ccccc4C)ncn3)c2c1	-19.3%

Remaining list, next part.
SMILES | EPAC1 agonist
CCCCCCCCN1[C@@H](CC(=O)OC)c2ccc(/C=C/C(=O)OC)cc2S1(=O)=O | 4.0%
COC(=O)Nc1nc2ccc(C(=O)c3cccs3)cc2[nH]1 | -2.6%&19.4%&-7.8%&-3.5%
CN1C(=O)C[C@@H](C(=O)N[C@@H](Cc2cnc[nH]2)C(=O)N2CCC[C@H]2C(N)=O)NC1=O | 5.7%
O=C(O)c1cc(N=Nc2ccc(O)c(C(=O)O)c2)ccc1O | 8.7%
COc1cc(=O)n(C)c2c(OCC3OC(C)(C)OC3(C)C)cccc12 (stereo unspecified) | -17.2%
CCOC(=O)[C@H](CCc1ccccc1)N[C@H]1CCc2ccccc2N(CC(=O)O)C1=O | -24.5%
CC1=C(C(=O)OCc2ccc3nsnc3c2)N2C(=O)[C@@H](NC(=O)OCc3ccc4nsnc4c3)[C@H]2SC1 | -11.3%
Oc1cccc2c(CC(O)c3c[nH]c4ccccc34)ccnc12 (stereo unspecified) | -4.3%
CC(C)NC[C@H](O)c1ccc2ccccc2c1 | 8.1%
C=C[C@](C)(O)CCC1C(=C)CC(O)C2C(C)(C)CCCC12C (stereo partly specified) | -70.0%[inhibitor]
COC(=O)N1CCC2(CC1)CN(C(=O)Nc1cccc(C#N)c1)C2 | 25.8%
COCCn1c(=O)c(C)nc2cnc(Oc3cccc(Cl)c3)nc21 | -39.5%[inhibitor]
O=C1CC(C(=O)N2CCCC(c3nc(-c4ccncc4)ncc3-c3ccccc3)C2)C2(CCCCC2)O1 (stereo unspecified) | 1.1%
C/C(N[C@@H]1CSCC1O)=C1/C(=O)CC2[C@@H]1C2(C)C (stereo partly specified) | -9.6%
Cc1nc(NCc2cnn(C)c2C)sc1-c1ccn(CC2COc3ccccc3O2)n1 (stereo unspecified) | 3.5%
COc1ccc(CNc2ncncc2-c2ccc(C(=O)N(C)C)cc2)c(OC)c1 | 1.7%
COc1cc2ncnc(Nc3cccc(Br)c3)c2cc1OC | 18.8%
COc1c2c(c(C(=O)/C=C/C(C)=C/c3ccccc3)c3c1OCO3)CCN(C)C2 | 9.6%
O=C1CCN(Cc2ccccc2)CCN1CCSc1ccccc1 | 11.6%
CCCCCCCCCCCCCC(=O)N[C@@H](C)[C@H](O)c1ccccc1 | -1.2%
COCC(=O)N1CCC[C@@]2(CCN(C(c3ccccc3)c3ccccc3)C2)C1 | -40.6%[inhibitor]
CC1(C)OC2C[C@](O)(C(N)=O)C[C@H](O)[C@H]2O1 (stereo partly specified) | 2.6%
CCCCCCCCCCCCCCCC(=O)NCCO | 0.2%&-16.1%&-10.4%&-9.2%
Cc1cccnc1-c1cccc2c1OC(CNC(=O)/C=C/c1cccs1)C2 (stereo unspecified) | -15.8%
COc1ccc(C2Oc3cc(OC)cc(OC)c3CC2O)cc1 (stereo unspecified) | 14.3%
CC(C)C[C@@H](CN=[N+]=[N-])N1CCN(CCc2ccccc2)CCC1=O | ?
COc1ccc(C2CC(=O)c3c(O)cc(OC4OC(COC5OC(C)C(O)C(O)C5O)C(O)C(O)C4O)cc3O2)cc1O (stereo unspecified) | -7.8%
COc1ccc(NC(=O)N2CC[C@@]3(CCCN(C(=O)c4c(C)noc4C)C3)C2)cc1 | -56.7%[inhibitor]
C=CCSSSCC=C | -41.1%[inhibitor]
CCc1oc2ccccc2c1C(=O)c1cc(Br)c(O)c(Br)c1 | -42.4%[inhibitor]
C[C@@H]1O[C@@H](OC[C@H]2O[C@@H](Oc3c(-c4cccc(O)c4O)oc4cc(O)cc(O)c4c3=O)[C@H](O)[C@@H](O)[C@@H]2O)[C@H](O)[C@H](O)[C@H]1O | -1.3%
COc1cccc(C(=O)O[C@H]2[C@H](Cc3ccccc3)NS(=O)(=O)[C@H]3C[C@@H]4C=C[C@]23O4)c1 | -27.6%
COc1c(N2C[C@@H]3CCCN[C@H]3C2)c(F)cc2c(=O)c(C(=O)O)cn(C3CC3)c12 | ?
COc1ccc(-n2c(CNC(=O)c3ccccc3C(F)(F)F)nnc2SC)cc1 | -0.3%
O=C(NCC1(N2CCOCC2)CCCCCC1)c1cnn(-c2nccc(-c3ccco3)n2)c1C1CC1 | -3.0%
Cc1csc(-c2nc3ccccc3n2C)n1 | 8.4%
COCC(=O)N1CCC2(CCCN(c3ccccc3)C2)CC1 | -14.6%
COC(=O)C[C@](O)(CCCC(C)(C)O)C(=O)O[C@@H]1C(OC)=CC23CCCN2CCc2cc4c(cc2[C@H]13)OCO4 (stereo partly specified) | -17.8%
O=C(NCCc1nnc2n1CCN(Cc1ccsc1)CC2)c1ccc(F)cc1 | -3.5%
CCOC(=O)C1=C(C)NC(C)=C(C(=O)OCC)C1c1c(F)c(F)c(F)c(F)c1F | -23.4%

Compound activity from PubChem BioAssay.
